Compound activity from PubChem BioAssay.
A647 fluor: compound autofluorescence in A647 spectral region | Compound fluorescence, A647 channel (570/671 nm), Tris buffer | max dye-equivalent concentration, M | 59,000 tested, under 10 active | AID 592; active means above 1 µM dye equivalent; inconclusive means 0.1 to 1 µM; inactive means 0.1 µM or less;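 also: values scaled relative to a standard on each plate; highest value over a series up to 38 µM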
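Tris 100 mM pH 8.0; cpd + A647 stds pin-transferred; 15 min RT; CCD imager, ex 570/em 671. Output = A647-equivalent conc. per cpd conc.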
Resorufin fluor: compound fluoresces in the resorufin spectral region; Compound fluorescence, resorufin region 547/598 nm, buffer; hits give high values; max dye-equivalent concentration, M; 0.04% of 59,000 active; active = above 10 nM dye equivalent; inconclusive = 1 to 10 nM; inactive = 1 nM or less; a few of its hits are not listed in these tables; also: highest value over a series up to 38 µM
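Tris 100 mM pH 8.0; compound added, 15 min RT; CCD imager read, ex 547 nm/em 598 nm; signal normalized to resorufin standard curve (six concentrations per plate) as dye-equivalent concentration.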
TSHR agonist: agonists of human thyroid stimulating hormone receptor | P16473 | HEK293-CNG-TSHR cells (CNG channel as cAMP sensor), membrane potential dye, cAMP | Potency, µM (highest dose often 57.1 µM), without a hit: at the top dose activation, most hits filed as activators | 0.48% of 73,000 active; active = well fitted activation curve of enough size with the parental cells flat; inconclusive = any curve in the parental cells; inactive = parental cells flat and receptor cells flat or falling; also: potency is read from the fitted curve at half-maximal effect; % of control where 0% means no effect; weak receptor curves with flat parental cells got no call and are not listed
Target sequence (P16473 whole entry, looked up): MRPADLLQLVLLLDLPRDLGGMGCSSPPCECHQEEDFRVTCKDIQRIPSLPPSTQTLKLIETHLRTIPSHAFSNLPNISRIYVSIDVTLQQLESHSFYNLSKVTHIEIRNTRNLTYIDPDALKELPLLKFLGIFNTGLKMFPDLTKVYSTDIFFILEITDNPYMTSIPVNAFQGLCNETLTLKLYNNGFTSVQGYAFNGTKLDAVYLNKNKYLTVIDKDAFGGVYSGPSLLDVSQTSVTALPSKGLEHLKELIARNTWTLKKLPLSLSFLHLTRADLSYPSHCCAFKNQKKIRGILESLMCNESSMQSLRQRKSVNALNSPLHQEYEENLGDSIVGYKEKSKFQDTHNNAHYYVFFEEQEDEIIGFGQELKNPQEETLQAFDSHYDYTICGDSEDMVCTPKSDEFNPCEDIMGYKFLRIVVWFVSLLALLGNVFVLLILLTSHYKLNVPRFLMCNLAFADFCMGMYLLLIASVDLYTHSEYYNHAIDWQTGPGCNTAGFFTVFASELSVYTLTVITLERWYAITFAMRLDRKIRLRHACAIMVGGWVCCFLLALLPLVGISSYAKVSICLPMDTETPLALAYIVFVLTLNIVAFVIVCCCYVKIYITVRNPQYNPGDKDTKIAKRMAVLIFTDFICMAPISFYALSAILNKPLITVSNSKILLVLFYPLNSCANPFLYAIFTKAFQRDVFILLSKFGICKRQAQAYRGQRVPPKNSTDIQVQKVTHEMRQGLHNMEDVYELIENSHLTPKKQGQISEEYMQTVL
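HEK 293 cells stably expressing TSHR and a cAMP-gated CNG channel; parental CNG-only cells as counterscreen. Cells preloaded 60 min with membrane potential dye plus 100 uM RO 20-1724, then compound 30 min; fluorescence read at 590 nm.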
A488 fluor: A488 region autofluorescence | compound autofluorescence, A488 spectral region, dye equivalency; hits give high values | max dye equivalency, M | 0.1% of 59,000 active | AID 591; active = above 10 nM dye equivalent; inconclusive = 1 to 10 nM; inactive = 1 nM or less; about half of its hits are not listed in these tables;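 also: highest value over a series up to 38 µM; compound alone in buffer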
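Readout is A488 dye-equivalent concentration, calibrated by a per-plate six-point Alexa 488 series. Compounds in 100 mM Tris buffer pH 8.0 were incubated 15 min at room temperature. Plates were imaged using 480 nm excitation/540 nm emission filters.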
AID923: qHTS Assay for Allosteric/Competitive Inhibitors of Caspase-1: Spectroscopic Profiling in AFC Spectral Region; compound fluorescence, AFC spectral region (405/520 nm); almost no hit is shown here; Potency, µM (titrated, usually from 57.5 µM), inactives show at the highest dose fluorescence increase, usual class: activators; 1.1% of 75,000 active; active = well fitted activation curve with a large enough effect; inconclusive = small, poorly fitted or top-dose-only effect;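 also: potency is read from the fitted curve at half-maximal effect; 0% is about no effect; scaled to a free AFC standard on each plate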
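Compound autofluorescence profiled at 405 nm ex/520 nm em during kinetic caspase 1 run (50 nM enzyme, 5 uM Ac-WEHD-AFC, HEPES pH 7.5, 10 mM DTT). Titration up to 57 uM; baseline from regression intercept, normalized to AFC standard curve.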
An asterisk follows results filed as active; i = inactive; ? = inconclusive; nt = no result given; & = joins results of further samples; [ ] = remark or other dose. The list is partial. The share of hits here may be higher or lower than overall.

SMILES	A647 fluor	Resorufin fluor	TSHR agonist	A488 fluor	AID923
O=c1c(-c2cc(F)cc(F)c2)nc2cncnc2n1-c1ccccc1	1e-09	i	-9%	i	7.7%
c1ccc2c(N3CCNCC3)nc(-c3ccc4c(c3)OCO4)nc2c1	1e-09	i	2%	i	-3.0%
Nc1cc(Cl)c(N)cc1Cl	nt	nt	-1%	nt	2.3%
O=C(Cn1cnc2c(nnn2Cc2ccc(F)cc2)c1=O)NCC1CCCO1 (stereo not drawn)	2.3e-09	i	0%	i	-2.0%
CCC(=O)Nc1cc(Cl)ccc1N1CCN(C(=O)CC)CC1	1.1e-08	i	?	i	-2.1%
CC1Cn2c(nnc2-c2cccs2)S1 (stereo not drawn)	1e-09	i	-11%	i	1.3%
COc1cc(N)ccc1NC(=O)c1cccs1	9.3e-09	i	-8%	i	-0.1%
Cc1ccc2c(c1)N(CCCC(=O)NCc1ccc3c(c1)OCO3)C(=O)CO2	nt	nt	20%	nt	-1.3%
Cc1cc(C)cc(O)c1	nt	nt	1%	nt	-0.6%
Cc1ccnc(N2C(=O)c3ccccc3C2Nc2ccccc2Cl)c1 (stereo not drawn)	nt	nt	19%	nt	-0.1%
CCOc1ccc(-c2nc(C#N)c(NCC(C)C)o2)cc1	1e-09	i	nt	i	nt
O=C(CCn1c(=O)sc2ccccc21)NCCC1=CCCCC1	1.1e-08	i	5%	i	-1.6%
COc1ccc(COC(=O)N/N=C2/C[C@@H](O)[C@@H](O)[C@@H]3[C@H]4C(=O)N(c5ccc(F)cc5F)C(=O)[C@@H]4CC[C@H]23)cc1	nt	nt	-6%[11.4 µM]	nt	-0.8%[11.5 µM]
Cc1ccc2c(c1)c1c(n2CC(O)Cn2c(C)nc3ccccc32)/C(=N\O)CCC1 (stereo not drawn)	1e-09	i	-8%	i	-2.1%
CCc1c(C)nc2[nH]nc(NC(=O)C(F)(F)F)n2c1=O	8e-09	i	3%	i	1.0%
CNC(=O)c1ccc2snnc2c1	nt	nt	-2%	nt	0.2%
CNc1nc(NC)nc(-n2c(C(F)(F)F)nc3ccccc32)n1	3.1e-09	i	10%	i	-0.2%
Cc1ccc(CCNC(=O)C2CCN(c3nn4c(=O)cc(C)nc4s3)CC2)cc1	1.9e-08	i	0%	i	0.0%
COC(=O)c1ccccc1NC(=O)Nc1cccnc1	6.4e-08	i	-1%	i	-0.4%
CCn1c(=S)sc2nc(C)sc21	1e-09	i	-2%	i	-0.2%
COc1ccc(C2c3c(oc4c(C)cc(C)cc4c3=O)C(=O)N2Cc2cccnc2)cc1OC (stereo not drawn)	5e-09	i	6%	i	1.2%
C=CC[C@@H]1C=C[C@H](Oc2ccc(C)cc2)[C@H](COC(=O)NCc2cccc3ccccc23)O1	nt	nt	9%[11.4 µM]	nt	1.9%[11.5 µM]
CC(=O)Oc1cc(C(C)C)c(OCCN(C)C)cc1C	2.6e-09&1.2e-09&1.5e-08	i	8%[25.6 µM]	i	0.5%[25.7 µM]
C=CCSc1nc2ccccc2[nH]1	8.7e-09	i	13%	i	-1.7%
CS(=O)(=O)Nc1cccc(-c2ccc3ncnc(NCc4cccnc4)c3c2)c1	2e-09	i	5%	i	-0.8%

Compound profiles, as listed above. Screens in order: A647 fluor	Resorufin fluor	TSHR agonist	A488 fluor	AID923
`Cc1cc(C)cc(O)c1` is entered as nt	nt	1%	nt	-0.6%
`COc1cc(N)ccc1NC(=O)c1cccs1` is entered as 9.3e-09	i	-8%	i	-0.1%
`C=CC[C@@H]1C=C[C@H](Oc2ccc(C)cc2)[C@H](COC(=O)NCc2cccc3ccccc23)O1` is entered as nt	nt	9%[11.4 µM]	nt	1.9%[11.5 µM]
`CC(=O)Oc1cc(C(C)C)c(OCCN(C)C)cc1C` is entered as 2.6e-09&1.2e-09&1.5e-08	i	8%[25.6 µM]	i	0.5%[25.7 µM]

(further entries)
SMILES	A647 fluor	Resorufin fluor	TSHR agonist	A488 fluor	AID923
Cc1cc(NC(=O)c2sc(Nc3cccc(C(F)(F)F)c3)nc2N)no1	1.4e-08	i	-31%[inhibitor]	i	1.8%
CCn1c(=O)c2cc(S(=O)(=O)NCCOc3ccccc3)ccc2n(CC)c1=O	1.9e-08	i	14%	i	-1.9%
CCOC(=O)c1ccc(NC(=O)CNC(=O)C2CCCCC2)cc1	nt	nt	-1%[11.4 µM]	nt	3.1%
NC(=O)[C@@H]1CCCN1Cc1ccc2c(c1)OCO2	1e-09	i	-3%[11.4 µM]	i	-1.3%[11.5 µM]
CCn1cc(C2Nc3ccccc3C(=O)N2O)c(C)n1 (stereo not drawn)	1e-09	i	1%	i	-1.6%
O=c1c2ccccc2nc(SCc2nc(-c3ccccc3)no2)n1-c1ccc(F)cc1	nt	nt	?	nt	3.8%
CCOc1nc(C)ccc1-c1noc(-c2ccccn2)n1	1e-09	i	1%	i	0.7%
COCCCn1c(SCC(=O)NCc2ccco2)nc2sc3c(c2c1=O)CCC3	2.9e-09	i	16%	i	0.4%
CCOC(=O)c1sc2ncn(C(CC)C(=O)OCC)c(=O)c2c1C (stereo not drawn)	4.5e-09	i	13%	i	-0.5%
COc1cccc(N2CCN(CC(=O)Nc3nc4c(s3)CC(C)CC4)CC2)c1 (stereo not drawn)	6e-09	i	6%	i	-0.2%
CCc1ccc(S(=O)(=O)NCCc2cn3ccsc3n2)s1	nt	nt	2%	nt	7.8%
O=C(Cn1nc(C(F)(F)F)c2c1CCC2)NCc1ccc(F)cc1	2.8e-08	i	-5%	i	-1.5%
CCN1C(=O)c2cccc3c(S(=O)(=O)Nc4ccc(OC)cc4OC)ccc1c23	1e-09	i	7%	i	7.5%
Cc1cc(NC(=O)CSc2nc3ccsc3c(=O)n2Cc2ccccn2)n[nH]1	1.2e-08	i	4%	i	1.1%
Cc1nc([N+](=O)[O-])cn1-c1nc2ccccn2c1[N+](=O)[O-]	1e-09	i	3%[11.4 µM]	i	-0.7%[11.5 µM]
COC(=O)CNC(=O)C1(C)C=CCN1C(=O)c1ccccc1 (stereo not drawn)	nt	nt	11%	nt	-1.6%
CCOC(=O)C1CCN(S(=O)(=O)c2cc(Cl)c(C)cc2OC)CC1	4.8e-09	i	?	i	0.7%
Cc1cc(C)cc(Oc2ccc(N)cc2)c1	2e-09	i	-8%	i	0.9%
CC(=O)Oc1cccc(N2C(=O)c3ccc(C(=O)O)cc3C2=O)c1	nt	nt	-3%[11.4 µM]	nt	-0.9%
COc1ccccc1C1C(C#N)=C(N)Oc2cc(C)n(CCCn3ccnc3)c(=O)c21 (stereo not drawn)	9.9e-09	i	-12%	i	0.7%
CCOC(=O)Cc1[nH]nc2c1C(c1ccoc1)C(C#N)=C(N)O2 (stereo not drawn)	2.3e-08	i	4%	i	1.1%
O=C(c1ccc(F)cc1)N(Cc1ccccc1)C1CCS(=O)(=O)C1 (stereo not drawn)	2.4e-08	i	11%	i	1.5%
CCCOC(=O)c1[nH]c2c(c1C)C(=O)CC(c1ccc(OC)c(OC)c1)C2 (stereo not drawn)	5.5e-08	i	19%	i	-1.7%
COC(=O)CNC(=O)C(C)NC(=O)OCc1ccccc1 (stereo not drawn)	nt	nt	-6%	nt	2.7%
CCOC(=O)N1CCN(c2nc3ccccc3nc2C(C#N)S(=O)(=O)c2ccc(C)cc2)CC1 (stereo not drawn)	1e-09	i	7%	i	7.4%

2 entries from above in another layout.
> O=C(Cn1nc(C(F)(F)F)c2c1CCC2)NCc1ccc(F)cc1
- A647 fluor: 2.8e-08
- Resorufin fluor: i
- TSHR agonist: -5%
- A488 fluor: i
- AID923: -1.5%
> CCN1C(=O)c2cccc3c(S(=O)(=O)Nc4ccc(OC)cc4OC)ccc1c23
- A647 fluor: 1e-09
- Resorufin fluor: i
- TSHR agonist: 7%
- A488 fluor: i
- AID923: 7.5%

(listing goes on)
SMILES	A647 fluor	Resorufin fluor	TSHR agonist	A488 fluor	AID923
COc1ccc(N(CC(=O)O)N=O)cc1	1.6e-08	i	-1%[11.4 µM]	i	-2.6%[11.5 µM]
O=C(NC1CCCC1)C1CCN(S(=O)(=O)c2cccc3cccnc23)CC1	2.9e-09	i	nt	i	1.5%
COc1ccc(-c2noc(CCC(=O)NCCN(C)Cc3ccccc3)n2)cc1	1.4e-08	i	?	i	1.0%
O=C(NCc1ccc2c(c1)OCO2)c1cccnc1	1e-09	i	2%	i	0.8%
O=C(O)c1ccccc1NS(=O)(=O)c1cccc2cccnc12	3.1e-09	i	9%	i	0.2%
O=C(NC1=NCCS1)C12CC3CC(C1)CC(C(=O)NC1=NCCS1)(C3)C2	3.5e-08	i	3%	i	-1.1%
COc1ccc(NC(=O)CSc2nnc(-c3ccccc3Cl)n2Cc2ccco2)c(OC)c1	8.7e-09	i	?	i	-0.8%
CCOC(=O)c1ccc2[nH]c(C)c(CCC(C)=O)c(=O)c2c1	nt	nt	2%	nt	-3.5%
O=S(=O)(c1ccc2c(c1)OCCO2)N1CCC(n2nnc3cc(F)ccc32)CC1	3.6e-09	i	nt	i	-0.3%
Cc1ccc(-c2cc(C(=O)OCC(=O)Nc3cc(C)on3)c3ccccc3n2)c(C)c1	2.6e-08	i	16%	i	0.8%
COc1ccc(-c2cc(C(=O)NC(C(=O)O)C(C)C)c(C)o2)cc1OC (stereo not drawn)	2.7e-08	i	6%	i	0.4%
CN(C)c1ccc(N/C=C/C(=O)c2ccccc2)cc1	1.2e-08	i	-13%	i	-0.4%
O=C(NCc1cccnc1)c1cc(-c2cccs2)on1	2.3e-08	i	1%	i	3.0%
O=C(NC1CCN(C(=O)Nc2cccc(F)c2)CC1)C1CCCCC1	4.3e-09	i	1%	i	0.1%
Cc1ccc(S(=O)(=O)N2CCN(C(=O)COc3ccc(-c4nnco4)cc3)CC2)cc1	2e-09	i	-1%	i	0.3%
O=C(c1nc2ccccc2s1)N1CCSCC1	5.8e-09	i	6%	i	0.7%
COc1nonc1NCn1nc(C)cc1C	1e-09	i	-2%[11.4 µM]	i	-1.8%
Cc1cc(NC(=O)CSc2nnc(CNc3cccc(C(F)(F)F)c3)n2Cc2ccco2)no1	3.1e-08	i	?	i	0.5%
O=C1CN(/N=C/c2ccc([N+](=O)[O-])o2)C(=O)N1	nt	nt	?	nt	10%
COc1cccc(C(=O)Oc2cc(N)n(S(=O)(=O)c3ccc(C)cc3)n2)c1OC	8.2e-09	i	-23%	i	0.8%
c1ccc2c(c1)CCCn1nnnc1-2	2.9e-08	i	2%	i	-1.1%
COC(=O)Nc1sc2c(c1C(=O)N1CCOCC1)CCC(C)C2 (stereo not drawn)	4.7e-09	i	-6%	i	1.1%
O=C(O)c1ccc(CN2C(=O)c3ccccc3S2(=O)=O)cc1	4.4e-09	i	1%	i	0.9%
Cc1cc2ccccc2n1CCNC(=O)C(C)(C)C	nt	nt	-6%	nt	2.1%
COc1cccc(-n2c(Cc3cc(=O)[nH]c(=O)[nH]3)nnc2SCC(=O)NC2CCCC2)c1	nt	nt	1%	nt	-2.0%
Next part
SMILES	A647 fluor	Resorufin fluor	TSHR agonist	A488 fluor	AID923
Cc1ccc(C)n1-n1cnc2sc(-c3ccccc3)cc2c1=O	1.8e-08	i	nt	i	-0.9%
Cc1cc(-n2c(C)cc(C(=O)COC(=O)CN=C3NS(=O)(=O)c4ccccc43)c2C)no1	1.3e-08	i	0%[11.4 µM]	i	1.4%
CN(CCNC(=O)C1CCN(S(=O)(=O)N2CCOCC2)CC1)CCc1ccccc1	2.5e-08	i	-2%	i	-1.0%
COc1ccc(NC(=O)N2CC3(CCN(C(=O)c4ccc(OC)cc4)CC3)C2)cc1	1.1e-08	i	5%	i	4.5%
CC(C)CN(C(=O)COC(=O)Cc1c[nH]c2ccccc12)C1CCS(=O)(=O)C1 (stereo not drawn)	1e-09	i	-1%	i	1.5%
O=C(O)CCC(=O)c1ccc2sc3ccccc3c2c1	1e-09	i	-1%[11.4 µM]	i	-0.7%[11.5 µM]
COc1ccc(Cl)cc1NC(=O)CN1CCC(n2nnc3cc(F)ccc32)CC1	3.8e-09	i	2%	i	3.0%
